# Source: PubChem BioAssay (National Center for Advancing Translational Sciences (NCATS))
# Cruzain inh noDet = qHTS Assay for Promiscuous and Specific Inhibitors of Cruzain (without detergent); Cruzipain (Trypanosoma cruzi), P25779; purified cruzain, Z-FR-AMC fluorescence, no detergent; Potency, µM, without a hit: max response, negative = inhibition, actives largely listed as inhibitors; 200,000 tested, 2.3% active; AID 1476, 2009;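 note: plate controls were enzyme without inhibitor for no effect and buffer without enzyme for full effect; nearly all actives have a fitted effect of over 40% in size; top concentration of the series not given in the record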
# Target sequence (P25779 123-467 limits assumed): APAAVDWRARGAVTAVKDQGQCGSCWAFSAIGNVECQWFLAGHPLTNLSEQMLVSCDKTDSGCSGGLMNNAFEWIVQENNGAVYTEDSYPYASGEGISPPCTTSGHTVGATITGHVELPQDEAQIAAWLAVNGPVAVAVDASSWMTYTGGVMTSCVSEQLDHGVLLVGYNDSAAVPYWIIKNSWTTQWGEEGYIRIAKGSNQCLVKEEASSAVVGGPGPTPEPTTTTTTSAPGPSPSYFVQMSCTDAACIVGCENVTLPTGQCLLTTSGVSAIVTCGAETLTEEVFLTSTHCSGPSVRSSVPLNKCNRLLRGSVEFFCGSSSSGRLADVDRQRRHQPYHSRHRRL
#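 Purified cruzain at 1.5 nM, pre-incubated 15 min with compound at room temperature in 100 mM sodium acetate pH 5.5, 5 mM DTT, 0.00005% Triton X-100. Reaction started with 2 uM Z-FR-AMC; AMC fluorescence increase over 60 s gives rate.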
# RE007 growth inh = qHTS Assay for Inhibitors of the HIV-1 protein Vpr | 360,000 tested, 0.21% active | AID 651644, 2012 | S. pombe RE007 Vpr strain, BacTiter-Glo ATP luminescence, 24 h; control for the full effect not named in the record | Potency, µM (top dose mostly 92.2 µM), without a hit: top-dose activity change, negative = less growth; active = well fitted falling curve with a large enough effect; inconclusive = small, poorly fitted or top-dose-only effect; inactive = no such curve, though single readings can be large or run the other way;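 note: % is set by controls: 0 for no effect and ±100 for the full control effect; nearly all actives have a fitted effect of over 50% in size; the assay follows cell death caused by Vpr and the record does not say whether a fall means rescue or toxicity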
#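 Fission yeast strain RE007, carrying one chromosomally integrated HIV-1 vpr copy, was seeded at OD 0.01 in PMG+AL medium with 23 nL pinned compound. After 24 h at 30 °C and 99% humidity, viability was read by BacTiter-Glo luminescence.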
# Cruzain inh Det = qHTS Assay for Promiscuous and Specific Inhibitors of Cruzain (with detergent) | purified cruzain, Z-FR-AMC fluorescence, 0.01% Triton | Potency, µM, for the others: max response, negative = inhibition, usual class: inhibitors | 200,000 tested, 0.43% active;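 note: plate controls were neutral wells for no effect and buffer without enzyme for full effect; nearly all actives have a fitted effect of over 40% in size; top concentration of the series not given in the record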
#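 Cysteine protease activity tested under reducing, mildly acidic conditions (100 mM sodium acetate pH 5.5, 5 mM DTT) plus 0.01% Triton X-100. Cruzain 1.5 nM; substrate Z-FR-AMC 2 uM; 15 min compound preincubation at room temperature.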
# SARS PLP yeast = qHTS of Yeast-based Assay for SARS-CoV PLP; S. cerevisiae expressing SARS-CoV PLpro, growth rescue; control for the full effect not named in the record; Potency, µM (highest dose often 32.9 µM), for inactives: at the highest dose activity, positive = growth rescue; 330,000 tested, 0.19% active; active means well fitted rising curve with a large enough effect; inconclusive means small, poorly fitted or top-dose-only effect; inactive means no such curve, though single readings can be large or run the other way; note: 0% is about no effect; nearly all actives have a fitted effect of over 55% in size; growth read by luminescence after 48 h
# NS1 function inh = qHTS Assay for Inhibitors of Influenza NS1 Protein Function; S. cerevisiae slowed by influenza A NS1, growth recovery by OD600; Potency, µM (series often up to 46.1 µM), for inactives: at the highest dose activity, positive = more growth; 270,000 tested, 0.4% active; active means well fitted rising curve with a large enough effect; inconclusive means small, poorly fitted or top-dose-only effect; inactive means no such curve, though single readings can be large or run the other way; note: nearly all actives have a fitted effect of over 50% in size
#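 Compounds were scored for reversing the slow growth caused by influenza A NS1 in S. cerevisiae, measured by optical density at 600 nm. Assay medium contained 2% galactose at pH 6.0; NS1-free yeast of the same strain were the positive control.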
# MARV entry inh = qHTS for inhibitors of binding or entry into cells for Marburg Virus; Marburg virus pseudotyped entry inhibition, cell reporter; control for the full effect not named in the record; about a third of the inactives were read at about 46 µM; 300,000 tested, 1.8% active; Potency, µM (titrated, usually from 37.8 µM), inactives show at the highest dose activity change, negative = inhibition, most hits filed as inhibitors; active = well fitted inhibition curve with a large enough effect; inconclusive = small, poorly fitted or top-dose-only effect, or effect the other way; inactive = flat fitted curve, though single readings scatter; tested in HEK293 cells; about a fifth of its hits are not listed in these tables; note: % is set by controls: 0 for no effect and ±100 for the full control effect; luciferase read-out
# Lassa entry inh = qHTS for Inhibitors of binding or entry into cells for Lassa Virus; AID 540256, 2011; Lassa virus pseudotype entry inhibition, cell reporter; control for the full effect not named in the record; Potency, µM (titrated, usually from 37.9 µM), inactives show at the top dose activity change, negative = inhibition, usual class: inhibitors; 300,000 tested, 1.2% active; active means well fitted inhibition curve with a large enough effect; inconclusive means small, poorly fitted or top-dose-only effect, or effect the other way; inactive means flat fitted curve, though single readings scatter; tested in HEK293 cells; note: % is set by controls: 0 for no effect and ±100 for the full control effect; nearly all actives have a fitted effect of over 50% in size; luciferase read-out
# 2A StopGo = High Throughput Screening for Foot and Mouth Disease Virus Antivirals. human cells with a luciferase reporter of 2A StopGo recoding; control for the full effect not named in the record. 410,000 tested, 1.2% active. Potency, µM (highest dose often 57.9 µM), for the others: top-dose signal change, negative = less light; active = well fitted falling curve with a large enough effect; inconclusive = small, poorly fitted or top-dose-only effect; inactive = no such curve, though single readings can be large or run the other way; tested in HEK293T cells; note: % is set by controls: 0 for no effect and ±100 for the full control effect; nearly all actives have a fitted effect of over 45% in size; luciferase light after 4 h
# * hit, by the source's call; ? = inconclusive; / = no result given; & = joins results of further samples; [ ] = remark or other dose. Unless noted, calls come from the whole dose curve; as a rule, active = well fitted curve in the direction sought with a large enough effect; inconclusive = small, poorly fitted or top-dose-only effect, or another doubt; inactive = no such curve, though single readings can be large; an effect the other way counts as inactive or inconclusive. Potency is the fitted concentration of half-maximal effect.
SMILES,Cruzain inh noDet,RE007 growth inh,Cruzain inh Det,SARS PLP yeast,NS1 function inh,MARV entry inh,Lassa entry inh,2A StopGo
Cc1cc(C(F)(F)F)nn1CC(=O)N(C)C1CCCCC1,/,14%,/,/,/,-7%,4%,0%
CCCCC(CC)CNC(=O)c1cc2ccccc2c(=O)o1 (stereo not given),10%,15%,-7.1%,-22%,1%,3%,5%,11%
COc1ccccc1CNC(=O)C1CCN(S(=O)(=O)c2ccc3[nH]c(=O)ccc3c2)CC1,17%,/,-0.3%,/,/,/,6%[46.1 µM],-25%
NC(=O)c1cc(-c2csc(-c3cccnc3)n2)ccc1O,/,9%,/,2%,7%,?,4%[46.1 µM],13%
Cc1ccc(C)c(N2CC(C(=O)Nc3nccs3)CC2=O)c1 (stereo not given),/,3%,/,5%,-6%,3%[46.1 µM],14%,11%
CCOC(=O)c1c(C)[nH]c(C)c1C(=O)COC(=O)c1cccnc1Cl,/,2%,/,-21%,/,-6%,18%,-3%
O=C(CN1C(=O)NC2(CCCCC2)C1=O)Nc1ccc2c(c1)CCC2,/,6%,/,3%,/,-1%,2%,14%
CCN1C(=S)N[C@@H](c2ccccc2)C(C(=O)OC)=C1C,/,2%,/,20%,3%&26%,/,/,?
Cc1ccc(S(=O)(=O)c2ccc(Cl)cc2)cc1S(=O)(=O)NC(C(=O)O)C(C)C (stereo not given),-3%,2%,1.4%,25%,17%,14%,-5%,-13%
COc1ccccc1-c1c(C#N)c(N)nc2c1CCc1ccccc1-2,?,2%,-8.1%,-62%,-23%,?,?,32µM*
COC(=O)c1cnn(-c2ccccc2)c1N,/,30%,/,-2%,10%,/,/,0%
COc1ccc(COc2ccccc2C(=O)NCc2ccccc2)cc1F,4%,3%,-7.0%,3%,-7%,?,?,?
O=C(Nc1ccc(Cc2ccncc2)cc1)C1CCC(N2C(=O)C3C4C=CC(C4)C3C2=O)CC1 (stereo not given),8%,11%,-0.8%,-20%,-11%,-30%,?,/
Cc1ccc(NC(=O)COC(=O)c2ccc(NC(=O)CC#N)cc2)cc1S(=O)(=O)N1CCOCC1,/,1%,/,-2%,/,/,7%[46.1 µM],9%
Cc1cc2c(cc1C)NC(c1ccccn1)C1=C(CC(C)(C)CC1=O)N2 (stereo not given),-16%,13%,-4.4%,0%,4%,5%,?,41%[activator]
COc1ccc(NS(=O)(=O)c2cccc(C(=O)N/N=C(\C)c3cccnc3)c2)cc1,/,-11%,/,-3%,/,11%,2%,17%
CC(Oc1ccc2c3c(c(=O)oc2c1)CCC3)C(=O)NCCN1CCOCC1 (stereo not given),/,11%,/,10%,5%,/,/,-2%
COc1cc2c(cc1OC)C(c1ccccc1)NC(C)(C)C2 (stereo not given),/,-19%,/,0%,1%,/,/,-7%
Cc1ccn2c(Nc3ccccc3C)c(-c3ccncc3)nc2c1,0%&-5%,-10%,-5.1%&-4.0%,-11%,-18%,3%[46.1 µM],18%[46.1 µM],?
O=C(c1sc2ccccc2c1Cl)N1CCN(c2ccccn2)CC1,/,-10%,/,15%,-86%,/,/,?
CN(C)c1ccc(NS(=O)(=O)c2cccc(Cl)c2)cc1,2%,-3%,-4.6%,-9%,2%,25%,1%,-4%
Cc1ccsc1/C=N/N=C1\C(=O)Nc2ccccc21,10%,0%,-1.8%,3%,-16%,-1%,12%,30%
O=C(COC(=O)c1cccc(C(=O)OCC(=O)c2ccc(Br)cc2)n1)c1ccc(Br)cc1,?,7%,7.7%,9%,11%,?,7%,16%
O=[N+]([O-])c1ccc(NN=Cc2ccc3c(c2)OCO3)nc1,/,2%,/,/,/,?,?,-16%
O=C(c1cccc2ccccc12)C1CCCN(C(=O)C2CCOCC2)C1 (stereo not given),/,14%,/,0%,-2%,/,/,-1%
CSc1nc2ccc(NC(=O)c3c(F)cccc3F)cc2s1,/,-2%,/,-3%,/,?,?,45%[activator]
O=C(c1noc2c1CCc1ccccc1-2)N1CCc2ccccc2C1,-12%,/,-3.9%,-3%,-20%,0%,/,/
CCOc1ccc(NC(=O)c2cc(S(=O)(=O)N3CCOCC3)cn2C)cc1,/,11%,/,-1%,6%,/,/,-15%
COc1ccc(S(=O)(=O)NC2CCCC2)cc1NC(C)=O,/,9%,/,-2%,2%,-5%[46.1 µM],20%[46.1 µM],17%
CC(NC(=O)c1ccc(Br)o1)c1ccccc1 (stereo not given),/,5%,/,-1%,-2%,-21%[46.1 µM],6%,10%
Cc1ccc(N=C(NOC(=O)c2ccccc2)c2nonc2N)c(C)c1,-8%,-1%,-11%,-7%,0%,1%,-18%,0%
Cc1occc1C(=O)Nc1cccc(Cl)c1Cl,/,0%,/,3%,-12%,/,/,0%
COc1ccc(Cn2c(=O)[nH]c3cc(C(=O)NCCCOC(C)C)ccc3c2=O)cc1,/,1%,/,2%,/,-2%[46.1 µM],12%[46.1 µM],-22%
CCN(CC)S(=O)(=O)c1ccc2oc(C(=O)NCC3COc4ccccc4O3)c(C)c2c1 (stereo not given),-24%,-18%,-0.3%,-4%,?,?,23µM*,?
Cc1nnc2ccc(-c3cccc(NS(C)(=O)=O)c3)nn12,/,1%,/,4%,/,?,-16%,-10%
C/C(=N\NC(=O)CCCC(=O)O)c1c(-c2ccccc2)c2cc(Cl)ccc2[nH]c1=O,/,-3%,/,0%,2%,0%,-8%,-15%
O=C(NNC(=O)c1cc(-c2ccncc2)nc2ccccc12)Nc1ccc(F)cc1,/,4%,/,8%,8%,-11%,5%,23%
O=C(NN1CCCCC1)c1ccccc1,1%,0%,3.6%,-9%,-10%,4%,13%,-23%
c1ccc2c(c1)nc(N1CCOCC1)c1nncn12,-6%,-18%,-2.6%,-3%,-8%,8%,-1%,-20%
CCOC(=O)c1c(NC(=O)CSc2nnnn2-c2ccc3c(c2)OCCO3)sc(C)c1C,-22%,-2%,-5.9%,-1%,-1%,0%&-6%,?,/
Cc1cc(-c2nnc(-c3cc4ccccc4oc3=O)o2)c(C)n1-c1ccccc1,?,-7%,-0.7%,3%,9%,8%,3%,0%
Cc1ccc(C(=O)Nc2ccc(-n3ccnc3P(=O)(O)c3ccccc3)cc2)cc1,13%,11%,-1.0%,/,-23%,?,-1%,0%
CC(C)=N/N=C(\c1cccc([N+](=O)[O-])c1)C12CN3CN(CN(C3)C1)C2,-10%,-14%,-3.1%,-2%,14%,?,16%,-21%
Cc1cc([N+](=O)[O-])ccc1NC(=O)c1ccc(NC(=O)C(C)C)cc1,/,-6%,/,0%,6%,0%[46.1 µM],0%[46.1 µM],-8%
CCOc1ccc2nc(N(Cc3cccnc3)C(=O)c3ccco3)sc2c1,?,/,-9.3%,/,/,/,-16%[46.1 µM],37%[activator]
CC1=C(C)C(=O)N(c2ccccn2)C1=O,-4%,19%,-0.6%,1%,-4%,0%,-22%,-13%
COc1ccc(-n2c(=O)[nH]cc(C(=O)Nc3ccc4c(c3)OCCO4)c2=O)cc1,9%,-1%,-2.9%,-12%,-10%,-26%,?,26%
CCc1nc2ccccc2[nH]1,-15%,9%,6.7%,-8%,8%,20%,3%,/
Cc1ccc(OCC(=O)NNC(=O)CCc2ccccc2)cc1,-3%,2%,10%,3%,-5%,-7%,5%,10%
Cc1cc(C)nc(NS(=O)(=O)c2ccc(NC(=O)CCN3C(=O)c4ccccc4C3=O)cc2)n1,-3%,-8%,1.9%,-1%,-1%,-5%,3%,86%[activator]
# New compounds follow:
SMILES,Cruzain inh noDet,RE007 growth inh,Cruzain inh Det,SARS PLP yeast,NS1 function inh,MARV entry inh,Lassa entry inh,2A StopGo
COc1ccc(NC(=O)C2CC(c3c(F)cccc3Cl)=NO2)cc1OC (stereo not given),/,-13%,/,1%,-14%,/,/,-23%
COC(=O)C1CCN(c2cc(=O)n(C3CCCCC3)c(=O)[nH]2)CC1,11%,-5%,1.7%,22%,-3%,1%,13%,-9%
COc1ccc(-c2csc(NC(=O)c3ccc(N4C(=O)CCC4=O)cc3)n2)cc1,/,3%,/,0%,8%,-8%,2%,?
CC(C)c1ccc(N(CC(=O)NCC2CCCO2)C(=O)Cn2nnc(-c3cccs3)n2)cc1 (stereo not given),/,10%,/,0%,2%,/,/,2%
O=S(=O)(c1cccs1)N1CCC2(CC1)OCCO2,/,15%,/,9%,-4%,7%[46.1 µM],25%[46.1 µM],-5%
COc1ccc(S(=O)(=O)Nc2ccc(S(=O)(=O)N3CCOCC3)cc2)cc1,-5%,5%,-1.1%,0%,2%,2%,0%,55%[activator]
Cc1ccc(SC(C)C(=O)Nc2ccccc2C(=O)N2CCOCC2)cc1 (stereo not given),-5%,-18%,1.8%,-2%,7%,2%,0%,-27%
COc1ccc(C(=O)NC(C(=O)NCC2CCCO2)C(C)C)cc1 (stereo not given),/,-12%,/,-3%,/,5%[46.1 µM],-3%,2%
Cc1c(-c2ccc(Br)cc2)[n+](=O)c2c(n1[O-])CCCC2,/,-13%,/,1%,3%,17%[46.1 µM],19%[46.1 µM],0%
C=C(C)C(=O)NNc1ccccc1,/,126%,/,-1%,/,?,-7%[46.1 µM],-3%
Cc1cc(C)c2cc(CN(CCO)C(=O)NC3CCCCC3)c(=O)[nH]c2c1,/,-4%,/,1%,-1%,/,/,9%
COc1ccccc1N1CCN(C(=O)c2c(-c3ccccc3Cl)noc2C)CC1,?,2%,0.2%,3%,-12%,?,?,?
CCN(CC)c1ccc(S(=O)(=O)N2CCOCC2)cc1NC(=O)CN1CCc2ccccc2C1,/,4%,/,0%,-18%,?,?,?
CCOC(=O)C1(Cc2cccc(F)c2)CCN(CC2CC2)CC1,/,2%,/,-1%,2%,?,-20%[46.1 µM],-19%
